Bioassay records as filed in PubChem.
D2 ag = Beta-Arrestin HTS for Positive Allosteric Modulators of the Human D2 Dopamine Receptor: Agonists. DiscoveRx PathHunter D2 beta-arrestin, luminescence, 90 min; 100% = 57 uM dopamine signal. activation, % (test concentration not listed). 0.084% of 360,000 active; in the data active = activation above about 40%; inconclusive = about 15% to 40%; inactive = below about 15%; further: compound concentration not given in the record; the text of the record calls up to 30% inactive
Target sequence (P14416 whole entry, looked up): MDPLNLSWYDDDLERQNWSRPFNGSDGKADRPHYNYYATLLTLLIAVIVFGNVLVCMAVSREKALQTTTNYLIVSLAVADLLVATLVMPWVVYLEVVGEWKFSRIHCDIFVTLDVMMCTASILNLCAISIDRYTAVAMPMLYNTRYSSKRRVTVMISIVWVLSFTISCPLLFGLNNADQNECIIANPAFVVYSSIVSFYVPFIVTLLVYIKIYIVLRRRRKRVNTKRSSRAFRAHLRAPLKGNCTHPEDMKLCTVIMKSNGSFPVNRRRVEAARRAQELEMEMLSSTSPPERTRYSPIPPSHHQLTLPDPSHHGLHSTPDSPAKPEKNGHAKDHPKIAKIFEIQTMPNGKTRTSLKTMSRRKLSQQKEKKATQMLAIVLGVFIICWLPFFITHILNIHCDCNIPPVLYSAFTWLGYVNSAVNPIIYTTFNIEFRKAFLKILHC
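DiscoveRx PathHunter D2 beta-arrestin cells (2,100/well) attached overnight, then compound-stimulated 90 min at 37 C in HBSS/10 mM HEPES/0.1% Tween-20 buffer; beta-galactosidase complementation read by luminescence after 1 h at ambient temperature. Dopamine 57 uM final (EC100) as control.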
Sfp inh = qHTS Assay for Inhibitors of Bacillus subtilis Sfp phosphopantetheinyl transferase (PPTase); Biochemical Sfp PPTase activity, qHTS; Potency, µM, without a hit: max response, negative = inhibition, hits mostly inhibitors; 3.5% of 310,000 active; active means well fitted inhibition curve with a large enough effect; inconclusive means small, poorly fitted or top-dose-only effect, or another doubt; inactive means no such curve, though single readings can be large or run the other way;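 further: the enzyme is Sfp with the accession as filed and its product quenches rhodamine fluorescence; potency means the concentration at half of the fitted maximal effect; 0% = enzyme reaction without inhibitor and -100% = no enzyme wells; top concentration of the series not given in the record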
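After 15 min at room temperature with compound, 15 nM Sfp received 5 uM rhodamine-CoA plus 12.5 uM BHQ-2-ybbR (50 mM Hepes pH 7.6, 10 mM MgCl2). Rate came from the fluorescence difference over 30 min, ex 525/em 598 nm.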
PINK1 expr mod = A Quantitative High throughput Screen to Identify Chemical Modulators of PINK1 Expression; PINK1 immunofluorescence, high-content cytometry, 24 h; Potency, µM (top dose mostly 76.6 µM), for inactives: at the highest dose activation (PINK1 increase), most hits filed as activators; 0.2% of 410,000 active; AID 624263, 2012; active = well fitted activation curve with a large enough effect; inconclusive = small, poorly fitted or top-dose-only effect; inactive = flat fitted curve, though single readings scatter; cell line not stated here;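 further: potency means the concentration at half of the fitted maximal effect; % of control where 0% means no effect; nearly all actives have a fitted effect of over 65% in size; a mitochondrial uncoupler was the plate control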
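Measures PINK1 amount and localization on or inside mitochondria by immunofluorescence. Stable cells get compounds at 5 concentrations for 24 hours before fixation and staining; CCCP controls included.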
Menin-MLL FL inh = qHTS Assay for Inhibitors Targeting the Menin-MLL Interaction in MLL Related Leukemias: Competition With Fluorescein Labeled MLL-derived Peptide; Fluorescence polarization, fluorescein-MLL peptide displacement from menin; AID 1766, 2009; 290,000 tested, under 10 active; FP activity change, % at 61.4 µM; inconclusive = falling polarisation curve, or a change in total fluorescence; inactive = total fluorescence flat and polarisation flat or rising; no compound was filed as active; the % refers to the polarisation; negative = inhibition;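 further: % of control where 0% means no effect; inhibitors lower the polarisation; unlabelled MLL peptide was the positive control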
ClpP mod = qHTS Assay for Activators of ClpP. purified B. subtilis ClpP, FRET peptide cleavage, 20 min. ATP-dependent Clp protease proteolytic subunit (Bacillus subtilis (strain 168)), P80244. 1.9% of 340,000 active. AID 651965, 2013. Potency, µM (series often up to 57.5 µM), for inactives: at the top dose activity change, negative = active; active = well fitted falling curve with a large enough effect; inconclusive = small, poorly fitted or top-dose-only effect; inactive = no such curve, though single readings can be large or run the other way; further: potency means the concentration at half of the fitted maximal effect; the source files actives as falling curves though it sought activators and does not explain the sign; nearly all actives have a fitted effect of over 65% in size; many hits overshoot -100%
Target sequence (P80244 whole entry, looked up): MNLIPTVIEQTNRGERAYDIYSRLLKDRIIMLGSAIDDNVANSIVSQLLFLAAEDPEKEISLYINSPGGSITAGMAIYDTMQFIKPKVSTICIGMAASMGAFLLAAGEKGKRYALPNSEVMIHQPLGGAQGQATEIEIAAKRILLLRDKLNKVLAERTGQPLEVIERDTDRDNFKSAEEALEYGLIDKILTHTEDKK
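Purified B. subtilis ClpP, 10 microg/mL final in Tris/HCl pH8 with KCl, BSA, glycerol and Tween-20, cleaved an Abz/nitrotyrosine-quenched decapeptide. Fluorescence (ex 320, em 430) was read at 0 and 20 min at room temperature. Delta was normalized to 5.8 microM ADEP and DMSO/no-enzyme controls.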
gsp agonist = qHTS for Agonist of gsp, the Etiologic Mutation Responsible for Fibrous Dysplasia/McCune-Albright Syndrome: qHTS; gsp mutant cells, cAMP HTRF, 30 min; control for the full effect not named in the record; Potency, µM (highest dose often 76.9 µM), inactives show at the highest dose activation (cAMP increase), hits mostly activators; 0.13% of 340,000 active; active = well fitted activation curve with a large enough effect; inconclusive = small, poorly fitted or top-dose-only effect, or another doubt; inactive = no such curve, though single readings can be large or run the other way; cell line not stated here;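 further: phosphodiesterase inhibitor Ro 20-1724 added with compounds to block cAMP breakdown; potency means the concentration at half of the fitted maximal effect; nearly all actives have a fitted effect of over 60% in size; about a fifth of the inactives were tested at one dose only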
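Cells stably selected in G418 were plated at 2000/well, grown 16-24 hr, then given compounds in DMSO with the PDE inhibitor […] (300 uM solution added) for 30 min at 37C; cAMP was read by HTRF.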
gsp antagonist = qHTS for Antagonists of gsp, the Etiologic Mutation Responsible for Fibrous Dysplasia/McCune-Albright Syndrome: qHTS | 0.4% of 340,000 active | gsp-mutant cells, cAMP HTRF, 30 min; control for the full effect not named in the record | Potency, µM (top dose mostly 76.9 µM), for inactives: at the top dose activity change, negative = inhibition, most hits filed as inhibitors; active = falling curve of any shape with a large fitted effect; inconclusive = falling curve, mostly with a smaller effect; inactive = flat or rising curve; cell line not stated here;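 further: intracellular cAMP measured with PDE inhibitor Ro 20-1724 present during compound exposure; potency means the concentration at half of the fitted maximal effect; on the % scale 0 is the no-effect control and ±100 the full control effect; nearly all actives have a fitted effect of over 65% in size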
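Cells in G418 medium, seeded 16-24 h, 37C; buffer exchange to DPBS + 1 mM CaCl2, 0.5 mM MgCl2, 0.05% BSA; cpds in DMSO + […] (300 uM stock), 30 min 37C; HTRF cAMP detection.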
* marks the source's active call; other numbers are inactive results; ? = inconclusive; . = no result given; [ ] = remark or other dose.

SMILES | D2 ag | Sfp inh | PINK1 expr mod | Menin-MLL FL inh | ClpP mod | gsp agonist | gsp antagonist
CCOc1ccc(N2CC(C(=O)Nc3ccc(N4CCOCC4)cc3)CC2=O)cc1 (configuration not stated) | -4.0 | 14% | 4.0% | 4.1 | -0.6% | -10% | 7%
CC(=O)c1ccc(NC(=O)c2onc(C)c2Cl)cc1 | -2.9 | 7% | -0.1% | -1.1 | 0.2% | 14% | 1%
CCOC(=O)c1nc(-c2ccccc2)oc1N(C)C | -4.7 | 10% | 1.1% | 3.0 | 61% | 14% | 6%
CCN(CC)CCC#CC(O)(c1ccccc1)c1ccccc1 | -2.7 | 6% | -1.0% | 0.4 | -3.0% | -2% | -4%
COc1ccc(-c2[nH]ncc2CN(C)C(C)c2cccs2)c(F)c1 (configuration not stated) | -4.5 | 7% | 5.5% | -0.1 | . | -9%[15.4 µM] | 5%
CC(c1ccon1)N(C)Cc1cn[nH]c1-c1ccc(F)cc1F (configuration not stated) | -4.5 | 17% | -0.8% | 0.3 | . | -1%[15.4 µM] | 8%
S=C(NN=C1CCN(Cc2ccccc2)CC1)NC1CCCCC1 | -7.4 | -89% | 4.3% | 0.6 | . | -6%[15.4 µM] | 0%
CCN(N=Nc1cccc([N+](=O)[O-])c1)c1cccc([N+](=O)[O-])c1 | 3.3 | -16% | 5.5%[38.3 µM] | 3.8 | -1.2% | 9% | -8%
O=C(O)CCN=Cc1c(O)c2ccccc2oc1=O | 2.0 | 14% | 1.4% | -1.5 | . | ? | 8%
Cc1cc(C)cc(NC(=O)NNC(=O)c2cc3occc3[nH]2)c1 | -2.4 | 0% | 1.5% | -1.4 | -14% | 7% | -3%
O=C(NCCc1ccccc1)C(=O)NCC1OCCCN1S(=O)(=O)c1cc(F)ccc1F (configuration not stated) | 3.8 | 4% | -1.6% | . | -2.4% | 3% | -2%
O=C(NCc1ccccc1)c1onc(CSc2ccc(Cl)cc2)c1C(=O)NCC1CC1 | 0.3 | . | 1.1% | . | -2.7% | -29% | 3%
Cc1ccc(C2=CC(C)(c3ccc(C)cc3)Nc3nc(C(F)(F)F)nn32)cc1 (configuration not stated) | -4.1 | 1% | 11% | 2.1 | . | 6%[15.4 µM] | 12%
COc1ccc(NC(=O)CSc2[nH]c(=O)cc(C)c2C#N)cc1OC | -1.0 | -12% | . | 0.0 | 0.8% | -7% | -18%
CCOC(=O)C1=C(CSc2nc(-c3ccncc3)ccc2C#N)OC(N)=C(C#N)C1c1ccc(OC)cc1 (configuration not stated) | 6.2 | ? | -1.0% | ? | -1.6% | 8% | -6%
Cc1cccc(Oc2ncnc(N)c2[N+](=O)[O-])c1C | -3.6 | 8% | 2.3% | 0.6 | -6.0% | -45%[inhibitor] | 13%
CCNC(=S)N(Cc1ccccc1)Cc1nc2ccccc2c(=O)[nH]1 | -0.4 | 15% | ? | 0.3 | ? | -1% | 2%
c1ccc(CN2CCN(c3nc(-c4ccccc4)nc4ccccc34)CC2)cc1 | -1.6 | ? | 2.0% | 20 | -0.9% | 5%[15.4 µM] | -3%
COc1ccccc1C(CNC(=O)CNC(=O)c1ccccc1Cl)N1CCCC1 (configuration not stated) | -3.7 | . | 0.1% | . | -3.3% | 14% | -7%
N#CC1=C(N)Oc2c(oc(CO)cc2=O)C12C(=O)Nc1ccc(Cl)cc12 (configuration not stated) | 3.6 | 18% | -1.1% | 2.4 | -3.5% | -26% | 7%
CC(C)(C)c1nc(NCCO)c2nnn(Cc3ccccc3)c2n1 | 0.7 | 13% | 0.6% | -2.3 | -0.1% | 4%[15.4 µM] | 9%
NC(=O)c1ccccc1NC(=O)C(c1ccccc1)c1ccccc1 | 2.2 | . | 1.2% | . | . | ? | -6%
Cc1ccccc1N1CCN(C(=O)c2ccccc2NC(=O)/C=C\C(=O)O)CC1 | 1.0 | -8% | -0.2% | 2.0 | -11% | -5% | 2%
Cc1sc2nc(CSCC(=O)Nc3ccc(C(=O)N(C)C)cc3)[nH]c(=O)c2c1C | -1.6 | . | 2.7% | . | -12% | 17% | 9%
Cc1cc(C)cc(NC(=O)C2CCCN(c3nccc(C)n3)C2)c1 (configuration not stated) | 0.3 | ? | 15%[38.3 µM] | 4.5 | -29% | -48%[inhibitor] | 0%
Next part:
SMILES | D2 ag | Sfp inh | PINK1 expr mod | Menin-MLL FL inh | ClpP mod | gsp agonist | gsp antagonist
O=C(Nc1ccc(Cl)c(Cl)c1)N1CC=CCC1 | -4.5 | -1% | 4.3% | 2.2 | 0.9% | 7% | -3%
Nc1ccccc1SC/C=C/CSc1ccccc1N | -0.3 | -30% | 0.3% | 0.6 | 2.0% | 0%[15.4 µM] | 14%
CC(C)Sc1nc(N2CCCC2)c2c(c1C#N)CC(C)(C)OC2 | -6.7 | -22% | 3.8% | 0.5 | -12% | 0% | ?
CC(C)CSc1nc2ccccc2n1CC(=O)O | -1.7 | 0% | 1.1% | -4.0 | . | 27%[15.4 µM] | 12%
COc1ccc(C(C)=O)cc1COC(=O)c1cc2ccccc2cc1O | -1.5 | 14% | 4.6% | 5.7 | . | -32%[15.4 µM] | -10%
NS(=O)(=O)c1ccc(CCNc2ccn3nc(-c4ccccc4)cc3n2)cc1 | 3.9 | . | 3.0% | . | 5.4% | . | .
C[C@H](NC(=O)Nc1ccccc1F)C(=O)O | 1.1 | 16% | 0.1%[38.3 µM] | -3.8 | 0.9% | -36% | 8%
CCOC(=O)/C(C#N)=C1/C=CN(c2ccccc2)C=N1 | -1.3 | 8% | -1.1% | 1.1 | -1.0% | -2% | 0%[15.4 µM]
CCc1n[nH]c2c1/C(=N\O)CC(C)(C)C2 | 1.0 | 1% | -1.7% | -0.6 | -5.4% | -67%[inhibitor] | 5%
CCCCCn1c(=O)c(C(=O)OCC)c(Cl)c2ccccc21 | 1.5 | -2% | -0.2% | 2.2 | . | 18%[15.4 µM] | -2%
COc1ccc(O)c(C(=O)c2cnn(-c3ccccn3)c2)c1 | -0.1 | 10% | 4.1% | 8.2 | . | 18%[15.4 µM] | -61%
Cc1ccc(C)c(NC(=O)CCC(=O)N/N=C/c2ccc[nH]2)c1 | -0.2 | -17% | ? | 2.2 | -0.7% | 4% | 1%
CCOC(=O)C1=C(C)N(C)C(=O)NC1c1c(OC)ccc2ccccc12 (configuration not stated) | 1.4 | -5% | 0.8% | 0.7 | 0.9% | -14%[15.4 µM] | -15%
O=[N+]([O-])c1cccc(COc2ccccc2CN2CCOCC2)c1 | -2.7 | . | 0.0% | . | -1.6% | . | -3%
CN(C)CC1CCCCC1OC(=O)c1ccc(Cl)cc1Cl (configuration not stated) | 1.5 | 2% | 0.5% | 1.0 | -0.3% | -5% | 0%
COC(=O)c1ccccc1OC(=O)c1cc2ccccc2oc1=O | 2.2 | -1% | 0.2% | 21 | . | 6% | -2%
O=C(c1ccc(N2CCCC2=O)cc1)N1CCN(c2ccccc2O)CC1 | -0.5 | . | 0.9% | . | 1.5% | -35%[inhibitor] | -12%
Cc1ccc(-c2nc3ncccc3o2)cc1NC(=O)c1cccs1 | -3.0 | -13% | 2.2% | 5.3 | -26% | 7% | 35µM*
Cc1cc(C(=O)CN2C(=O)NC(c3ccccc3)(c3ccccc3)C2=O)c(C)n1Cc1ccco1 | -2.8 | 6% | -1.6% | 3.6 | -7.1% | -29% | 14%
CCC(C(=O)OCC(=O)Nc1ccc(C(=O)Nc2ccc(OC)cc2)cc1)c1ccccc1 (configuration not stated) | -0.3 | 25% | 4.4% | 1.0 | . | 0%[15.4 µM] | -7%
COc1ccc(OC)c(NC(=O)COC(=O)c2c(C)noc2C)c1 | -4.2 | . | -1.6% | . | -0.5% | -12% | -20%
CC1CCN(S(=O)(=O)c2ccc3c(ccn3CC(=O)O)c2)CC1 | -15 | 13% | -0.8% | 0.0 | 2.4% | ? | 22%
CCOC(=O)C1CCN(C(=O)c2cc(COc3ccc(F)cc3F)on2)CC1 | -2.0 | 1% | -3.2% | . | -2.5% | -68%[inhibitor] | 5%
Cn1nccc1NS(=O)(=O)c1ccc(NC(=O)C(F)(F)F)cc1 | 0.5 | 9% | 0.4% | 6.7 | . | -5%[15.4 µM] | 12%
CCOc1ccc(-n2ccc(=O)c(C(=O)Nc3ccc(S(=O)(=O)Nc4nccs4)cc3)n2)cc1 | -1.6 | -30% | -1.4% | 1.7 | -3.1% | 29% | 7%
Further records:
SMILES | D2 ag | Sfp inh | PINK1 expr mod | Menin-MLL FL inh | ClpP mod | gsp agonist | gsp antagonist
CCOC(=O)c1ccc(N2CCN(C(=O)c3ccccc3)CC2)c(NC(=O)c2ccco2)c1 | 3.8 | 7% | -0.4% | 0.0 | . | 10%[15.4 µM] | ?
Cc1ccc2oc(C(=O)NCCCN3CCOCC3)c(C)c2c1 | -3.6 | 3% | 0.9% | -1.3 | -30% | -5% | 14%
CCNC(=S)SCCOc1ccc(C)cc1 | -0.2 | 16% | 0.3% | -0.2 | -1.3% | 13% | 3%
CCOC(=O)c1cnc2nc(SCc3ccccc3Cl)[nH]n2c1=O | -5.4 | . | 0.3% | . | ? | 6% | -10%
Cc1onc(-c2ccccc2Cl)c1C(=O)NCc1ccccn1 | -1.3 | 3% | 0.6%[38.3 µM] | -0.4 | -1.2% | -3% | 7%
N=C1SCC(=O)N1c1ncc(Cc2cccc(Cl)c2)s1 | -3.9 | ? | 3.5% | 0.6 | . | -1%[15.4 µM] | 7%
Cc1nc(-c2cccc(NS(=O)(=O)c3ccccc3)c2)cs1 | -3.0 | -5% | 1.8% | -2.7 | 5.1% | 5% | -7%
